# PrP UTR inh: inhibition of PrP 5' UTR reporter expression. inhibition, % (concentration not given with the values). hit rate 0.35% among 340,000. cell-based PrP 5' UTR mRNA reporter, plate reader;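 active = every replicate at 50% or more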;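 also: 0 = median of the neutral control wells; tested in H4 reporter cells; numbers are from one replicate; inactives centre near -14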
# Autofluor counter: counter-screen for toxin protease inhibitors: compound fluorescence; fluorescence intensity (concentration not given with the values); compound autofluorescence counterscreen, microsphere flow cytometry; stronger effect = higher value; hit rate 3.1% among 360,000; AID 624483;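 active = at least 3 SD above the mean of all compounds, about 16000 in these data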;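 also: 100 nL of 1 mM stock went into each well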
# Sa ugtP lethal: growth inhibition of ugtP-null S. aureus, primary screen, RN4220 ugtP deletion, OD600; 16 h; some inactives read as strong as hits; growth inhibition, % (concentration not given with the values); hit rate 0.54% among 330,000;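 active = z-score under -3 and OD600 up to 0.15 on both plates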;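 also: plate controls were untreated wells for no effect and antibiotic for full effect; wells of about 80 µL received 100 nL stock; the first replicate is given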
# Mtb hypoxia inh: PubChem AID 1159583; M. tuberculosis hypoxia-regulated fluorescent reporter, fluorescence; fluorescence inhibition, % (test concentration not listed); hit rate 0.1% among 300,000;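 active = 35 to 45% if threefold the growth effect, above 45% if 1.5-fold the growth effect; inactive = the rest, general growth blockers included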;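 also: wells of about 50 µL received 100 nL stock; 0% = vehicle wells and 100% = reference inhibitor wells; whole bacteria with a GFP reporter of the hypoxia response; strong numbers were not always called active; many hits fall short of the cut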
# BJeLR lethal: MLPCN primary cell-based screen for lethality selective to Ras in HRASV12 cells | BJeLR (HRASV12) viability, CellTiter-Glo ATP luminescence, 48 h; reference of the scale not given here | inhibition, % (test concentration not listed) | hit rate 0.17% among 300,000 | AID 1554, 2009;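 active = replicate mean above 50%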;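 also: 50 nL library stock added to about 25 µL; numbers are from one replicate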
# RN4220 kill: growth inhibition of S. aureus RN4220, primary screen, OD600. 16 h. inhibition, % (test concentration not listed). hit rate 0.33% among 330,000;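 active = z-score of -3 or lower and OD600 up to 0.18 on both plates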;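 also: plate controls were untreated cells for no effect and reference antibiotic for full effect; stock transfer was 100 nL into about 80 µL; one replicate is shown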
# Mtb hypoxia inh growth: recorded beside Mtb hypoxia inh, whose call it bears; growth inhibition, %; measured here: M. tuberculosis growth (absorbance);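 0% = vehicle and 100% = reference antibiotic; read after six days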
# The depositor's hits bear a star; / = no result given.
# The opening 2 entries as a preview:
SMILES,PrP UTR inh,Autofluor counter,Sa ugtP lethal,Mtb hypoxia inh,Mtb hypoxia inh growth,BJeLR lethal,RN4220 kill
CC(C)(C)c1ccc(OCC(=O)Nc2ccc(-c3nc4cccnc4o3)cc2)cc1,-17.1,2816,8.0,/,/,12.3,6.6
C/C(Cl)=C\Cn1c(NCCc2ccccc2)nc2c1c(=O)n(C)c(=O)n2C,-38.4,6537,-9.2,2.7,14.0,23.8,3.4

# All compounds of this part, previewed entries included:
SMILES,PrP UTR inh,Autofluor counter,Sa ugtP lethal,Mtb hypoxia inh,Mtb hypoxia inh growth,BJeLR lethal,RN4220 kill
CC(C)(C)c1ccc(OCC(=O)Nc2ccc(-c3nc4cccnc4o3)cc2)cc1,-17.1,2816,8.0,/,/,12.3,6.6
C/C(Cl)=C\Cn1c(NCCc2ccccc2)nc2c1c(=O)n(C)c(=O)n2C,-38.4,6537,-9.2,2.7,14.0,23.8,3.4
COc1ccccc1-n1nnnc1SCC(=O)N(C)C1CCS(=O)(=O)C1 (configuration not stated),-1.5,5506,0.2,-9.0,-4.1,/,2.0
O=C(NC(=S)Nc1ccc(CN2CCOCC2)cc1)c1cc2ccccc2o1,-10.5,2067,20.4,15.3,16.1,-3.6,3.5
c1ccc2sc(Nc3nc4cc5c(cc4s3)OCO5)nc2c1,-87.8,2510,10.8,-3.4,2.7,-2.4,-16.6
O=C(NC(=S)N1CCc2ccccc21)c1ccccc1Cl,-15.2,3862,16.2,14.9,9.1,1.3,4.5
CCOC(=O)C(=CC=C1Sc2cc(OCC)c(OCC)cc2N1CC)C(C)=O,/,/,-1.0,-157.5,-9.9,/,-0.2
COc1ccc(S(=O)(=O)N2CC(C)N(C(=O)N(C)C)C2C(C)C)cc1 (configuration not stated),-16.3,3491,8.5,2.2,6.7,6.7,2.7
CCCNC(=S)N1CCN(c2nc(C)nc3sc4c(c23)CCCC4)CC1,-20.9,3680,4.2,8.3,6.3,1.7,-6.6
Cc1ccc(S(=O)(=O)N2CCOCC2)cc1NC(=O)COC(=O)Cc1ccsc1,-23.0,2337,6.1,1.5,-0.1,-1.7,2.8
CC1(C)CC(=O)c2cc(C(=O)NC3CCSC3=O)c(=O)n(-c3ccccc3)c2C1 (configuration not stated),-24.9,3467,1.3,-6.7,-0.2,8.9,-2.4
COc1ccc(-n2c(N)c(C(=O)NCC3CCCO3)sc2=S)cc1 (configuration not stated),1.0,7926,12.4,3.2,-1.4,5.4,5.3
Cc1ccc(CN2CCN(Cc3ccc4c(c3)OCCO4)CC2CCO)cc1 (configuration not stated),-26.7,4847,5.9,4.0,-3.6,3.2,4.5
COc1ccc(C2C(C(=O)O)c3ccccc3C(=O)N2C)cc1Br (configuration not stated),-17.2,3895,2.8,/,/,9.8,0.8
C=CCn1cccc(C(=O)Nc2ccc(C)c(Cl)c2)c1=O,-59.0,3722,-1.6,15.0,7.0,1.2,-3.9
COc1ccc(Cl)cc1NC(=S)NC(=O)c1ccc2c(c1)OCO2,-9.9,6239,-5.0,-6.1,6.8,1.9,-2.5
COc1ccc(-c2cc3c(=O)n(CC(=O)NCc4cccnc4)nc(C)n3n2)cc1,-3.4,6156,-1.8,-0.1,-5.6,-3.0,3.5
O=C(/C=C/c1ccccc1)C1C(=O)c2ccccc2C1=O,-24.4,2406,-3.0,2.2,17.0,-24.2,18.2
N#CC1(NC(=O)COC(=O)/C=C/c2ccc3ccccc3n2)CCCCC1,-30.8,6010,-8.5,12.1,11.7,-0.6,-0.2
Cc1cccc(C=NN(CCO)C2=NS(=O)(=O)c3ccccc32)c1,/,/,-5.4,2.0,-3.3,/,1.7
CCC1(c2ccccc2)NC(=O)N(CC(=O)Nc2cc(Cl)ccc2N2CCN(C)CC2)C1=O (configuration not stated),-18.0,7521,1.4,8.6,11.9,/,-2.3
COc1nc(Nc2cccc(F)c2)nc(OC)n1,-8.9,2990,7.1,6.0,5.5,-2.7,6.0
Cc1cc(C)n(-c2ccc(C(=O)NCc3cccs3)cc2)n1,-14.0,4084,3.3,21.9,19.0,6.9,3.6
CC1(C)CC(=O)C(N=Nc2cc(C(F)(F)F)ccc2Cl)=C(O)C1,-11.0,4336,9.4,5.6,7.7,1.4,-2.2
CCCCOc1ccc(OCCSc2nc3ccccc3n2CC(=O)O)cc1,-18.7,4100,10.3,11.9,-0.5,6.5,5.5
O=C(CSc1ncccn1)N/N=C/c1cccs1,-18.9,5401,/,/,/,-6.0,/
O=C(NCCCN1CCOCC1)C(=O)N/N=C/c1cccc2ccccc12,-30.2,3965,/,/,/,-2.7,/
CCOc1ccc(C2c3c(oc4cc(C)c(C)cc4c3=O)C(=O)N2CCCN(C)C)cc1OC (configuration not stated),-10.6,4640,-3.4,/,/,-10.3,2.1
CCOc1ccc(NC(=O)CN(C)C(=O)c2cc([N+](=O)[O-])ccc2N2CCOCC2)cc1OCC,-14.1,/,7.5,-4.9,-3.4,-0.9,1.0
Cc1ccc(NC(=S)Nc2cccnc2)c(S(=O)(=O)N2CCCCC2)c1,-21.0,4363,0.3,-6.5,8.5,5.4,1.7
COc1ccc(NC(=O)c2ccc3c(c2)CCN3S(=O)(=O)c2ccccc2)cc1,-5.2,6219,-11.4,1.7,12.2,-0.1,1.5
Cc1ccc(C=Nc2sc3c(c2C(N)=O)CCCC3)o1,/,/,4.5,0.5,10.7,/,-0.5
CN1C(=O)C(O)(CC(=O)/C=C/c2ccco2)c2cc(Br)ccc21 (configuration not stated),-0.1,2087,/,/,/,2.5,/
O=C(Nc1cc(C(F)(F)F)ccc1N1CCOCC1)c1ccccc1,-12.8,4286,5.5,-1.8,4.1,5.1,2.5
COc1cccc(NC(=O)[C@H](Cc2ccccc2)NC(=O)[C@@H]2Cc3ccccc3CN2)c1,7.3,5301,-3.4,-0.6,9.9,-4.1,-1.1
CCOC(=O)C1=C(O)c2ccccc2C(=O)/C1=C\c1ccc(C)cc1,-27.6,3339,12.3,12.2,3.6,/,4.9
CC(/C=C/C1(O)C(C)CC(=O)CC1(C)C)OC1OC(CO)C(O)C(O)C1O (configuration not stated),-4.7,5053,0.8,/,/,-4.5,-0.2
O=C1N[C@@H](Cc2cn(S(=O)(=O)c3ccccc3)c3ccccc23)C(=O)N[C@H]1Cc1ccccc1,-12.5,2962,/,/,/,16.4,/
CN(C)CCCNc1ccc(-c2nn(C)c(=O)c3ccccc23)cc1[N+](=O)[O-],-74.1,4079,3.8,-0.9,10.8,8.7,-1.0
CCOc1ccccc1/C=N/NC(=O)c1ccc(Cn2cc([N+](=O)[O-])cn2)o1,-35.1,3821,/,/,/,3.3,/
COc1ccccc1CNC(=O)CN(C)S(=O)(=O)c1ccc2c(c1)n(C)c(=O)c(=O)n2C,-12.2,5980,-1.9,13.2,6.6,9.1,3.8
CC(=O)c1cccc(NC(=O)c2ccc(S(=O)(=O)N3CC(C)OC(C)C3)cc2)c1 (configuration not stated),-22.0,2972,6.2,-2.2,-2.6,/,3.6
COc1ccc(CC(=O)NCC(C)(C)N2CCOCC2)cc1,-2.4,4754,0.2,-1.7,-2.8,-2.7,1.0
CC(=O)Nc1ccc(S(=O)(=O)N(C)c2ccc(OCC(=O)OCC(=O)NCc3ccco3)cc2)cc1,-23.4,4707,14.9,-0.4,-11.2,-14.5,2.7
O=C(NN=Cc1cc(Cl)ccc1O)c1ccncc1,/,/,-1.9,8.2,9.9,/,10.0
CN(Cc1ccccc1)S(=O)(=O)c1ccc(OCC(=O)Nc2cccc([N+](=O)[O-])c2)cc1,-16.2,2092,2.1,13.5,7.4,12.4,-1.7
CCC(=O)c1ccc(OCC(O)Cn2nnc3ccccc32)cc1 (configuration not stated),-26.8,3296,4.9,4.4,2.5,23.3,12.6
O=C(NC1CCCC1)C(c1ccccc1F)N(C(=O)Cc1cccs1)c1ccc2c(c1)OCCO2 (configuration not stated),-4.0,2458,-1.7,9.0,4.8,-4.1,0.5
CCc1ccc(C2=Nn3c(nnc3-c3cccs3)SC2)cc1,3.0,6855,-18.0,2.0,10.2,3.9,19.5
CCCCCn1c(N2CCOCC2)nc2c1c(=O)n(CC(N)=O)c(=O)n2C,-16.7,2446,-2.4,/,/,5.2,-1.2

# The results go on.
SMILES,PrP UTR inh,Autofluor counter,Sa ugtP lethal,Mtb hypoxia inh,Mtb hypoxia inh growth,BJeLR lethal,RN4220 kill
CSc1nc2ccccc2c(=O)n1Cc1ccc(F)cc1,-4.7,4185,19.4,7.8,17.3,0.4,-0.7
Cc1cc(C)n2nc(-c3ccsc3-n3c(C)ccc3C)cc2n1,-10.7,4333,-4.6,/,/,9.0,0.9
CC(C)CCNC(=S)Nc1ccc(Br)cc1,-56.6,9791,-9.4,17.6,22.5,3.6,-8.5
Cc1cc(C(=O)N/N=C/C=C/c2ccc([N+](=O)[O-])cc2)n[nH]1,2.1,2125,/,/,/,6.4,/
CC(=O)SC(C)CC(=O)NCc1ccccc1 (configuration not stated),-2.4,7240,6.2,13.9,11.2,-12.1,2.4
Cc1cccc(CC2S/C(=N/N=C/c3ccco3)NC2=O)c1 (configuration not stated),-31.3,3877,/,/,/,0.0,/
O=C1NC(=O)C(=Cc2ccccc2OCCOc2ccc([N+](=O)[O-])cc2)C(=O)N1,-19.8,3701,-4.0,6.6,0.6,/,27.6
CCCc1cc(C(=O)N2CCCN(C)CC2)cs1,-12.5,5532,-1.2,4.8,-9.8,-14.5,2.3
O=C(O)CCCCCn1c(SCC(=O)Nc2ccc(F)cc2)nc2ccsc2c1=O,-26.8,3154,-0.5,2.9,10.7,5.8,4.3
COc1ccccc1NC(=O)Cn1nnc(-c2ccccc2NC(=O)c2cc3ccccc3oc2=O)n1,-43.8,9345,-10.9,2.3,3.8,1.3,2.1

# Sorted by SMILES length (falling): part of the list above
SMILES,PrP UTR inh,Autofluor counter,Sa ugtP lethal,Mtb hypoxia inh,Mtb hypoxia inh growth,BJeLR lethal,RN4220 kill
CN(Cc1ccccc1)S(=O)(=O)c1ccc(OCC(=O)Nc2cccc([N+](=O)[O-])c2)cc1,-16.2,2092,2.1,13.5,7.4,12.4,-1.7
O=C1NC(=O)C(=Cc2ccccc2OCCOc2ccc([N+](=O)[O-])cc2)C(=O)N1,-19.8,3701,-4.0,6.6,0.6,/,27.6
Cc1cc(C(=O)N/N=C/C=C/c2ccc([N+](=O)[O-])cc2)n[nH]1,2.1,2125,/,/,/,6.4,/
CCCCCn1c(N2CCOCC2)nc2c1c(=O)n(CC(N)=O)c(=O)n2C,-16.7,2446,-2.4,/,/,5.2,-1.2
Cc1cc(C)n2nc(-c3ccsc3-n3c(C)ccc3C)cc2n1,-10.7,4333,-4.6,/,/,9.0,0.9
Cc1cccc(CC2S/C(=N/N=C/c3ccco3)NC2=O)c1 (configuration not stated),-31.3,3877,/,/,/,0.0,/
CCC(=O)c1ccc(OCC(O)Cn2nnc3ccccc32)cc1 (configuration not stated),-26.8,3296,4.9,4.4,2.5,23.3,12.6
CCc1ccc(C2=Nn3c(nnc3-c3cccs3)SC2)cc1,3.0,6855,-18.0,2.0,10.2,3.9,19.5
CSc1nc2ccccc2c(=O)n1Cc1ccc(F)cc1,-4.7,4185,19.4,7.8,17.3,0.4,-0.7
O=C(NN=Cc1cc(Cl)ccc1O)c1ccncc1,/,/,-1.9,8.2,9.9,/,10.0
CCCc1cc(C(=O)N2CCCN(C)CC2)cs1,-12.5,5532,-1.2,4.8,-9.8,-14.5,2.3
CC(=O)SC(C)CC(=O)NCc1ccccc1 (configuration not stated),-2.4,7240,6.2,13.9,11.2,-12.1,2.4
CC(C)CCNC(=S)Nc1ccc(Br)cc1,-56.6,9791,-9.4,17.6,22.5,3.6,-8.5

# Going on with the list:
SMILES,PrP UTR inh,Autofluor counter,Sa ugtP lethal,Mtb hypoxia inh,Mtb hypoxia inh growth,BJeLR lethal,RN4220 kill
CCCCc1nnc(NC(=O)CSc2nc(O)c(Cc3ccccc3)c(=O)[nH]2)s1,-18.9,3596,/,/,/,-1.6,/
Cc1ccc(C2CC3CCC(C2)N3Cc2ccccc2F)cc1 (configuration not stated),-13.5,3901,-2.3,14.5,2.3,6.7,0.7
Cc1cc(Cn2nc(C(=O)NCc3cccc(Br)c3)cc2-c2ccccc2)on1,-17.4,2957,-20.0,0.0,4.0,/,10.6
CCN(C(=O)COC(=O)c1ccc(COc2ccc3c(C)cc(=O)oc3c2)cc1)C1CCS(=O)(=O)C1 (configuration not stated),-4.8,4097,9.5,7.8,8.9,3.3,-0.3
CCC1CC(C(C)=NNC(N)=O)OC1=O (configuration not stated),/,/,1.7,2.5,4.6,/,2.6
COc1ccc(N(CC(=O)NC2CCCC2)C(=O)CCC(=O)Nc2nc(C)cs2)cc1OC,-3.2,3788,-3.1,-4.7,8.1,0.1,1.2
